Cruzain noTriton – qHTS Assay for Promiscuous and Specific Inhibitors of Cruzain (without detergent) | actives 2.3% (n = 200,000) | Cruzipain (Trypanosoma cruzi), P25779 | Potency, µM, without a hit: max response, negative = inhibition, most hits filed as inhibitors | purified cruzain, Z-FR-AMC fluorescence, no detergent;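 note: plate controls were enzyme without inhibitor for no effect and buffer without enzyme for full effect; nearly all actives have a fitted effect of over 40% in size; top concentration of the series not given in the record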
Target sequence (P25779 123-467 limits assumed): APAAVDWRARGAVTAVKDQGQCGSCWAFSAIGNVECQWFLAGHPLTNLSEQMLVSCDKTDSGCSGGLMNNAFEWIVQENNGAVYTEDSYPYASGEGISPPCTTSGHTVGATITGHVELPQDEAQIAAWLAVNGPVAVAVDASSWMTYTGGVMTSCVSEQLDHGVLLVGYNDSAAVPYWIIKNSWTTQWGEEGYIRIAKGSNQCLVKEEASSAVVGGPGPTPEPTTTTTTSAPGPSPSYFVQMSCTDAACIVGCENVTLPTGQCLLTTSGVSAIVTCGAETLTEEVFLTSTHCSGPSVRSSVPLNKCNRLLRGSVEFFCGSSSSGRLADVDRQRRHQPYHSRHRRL
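Purified cruzain at 1.5 nM, pre-incubated 15 min with compound at room temperature in 100 mM sodium acetate pH 5.5, 5 mM DTT, 0.00005% Triton X-100. Reaction started with 2 uM Z-FR-AMC; AMC fluorescence increase over 60 s gives rate.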
Cruzain Triton – qHTS Assay for Promiscuous and Specific Inhibitors of Cruzain (with detergent); purified cruzain, Z-FR-AMC fluorescence, 0.01% Triton; Cruzipain (Trypanosoma cruzi), P25779; Potency, µM, for inactives: max response, negative = inhibition, usual class: inhibitors; actives 0.43% (n = 200,000); AID 1478, 2009;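 note: plate controls were neutral wells for no effect and buffer without enzyme for full effect; nearly all actives have a fitted effect of over 40% in size; top concentration of the series not given in the record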
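Detergent-containing run (0.01% Triton X-100) in acetate buffer pH 5.5 with 5 mM DTT: enzyme at 1.5 nM final, 15 min compound preincubation at room temperature, then 2 uM Z-FR-AMC substrate. Activity taken as 60 s fluorescence increase at 360/450 nm.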
An asterisk follows results filed as active; ? = inconclusive; & = joins results of further samples. Calls come from the whole dose curve; as a rule, active = well fitted curve in the direction sought with a large enough effect; inconclusive = small, poorly fitted or top-dose-only effect, or another doubt; inactive = no such curve, though single readings can be large; an effect the other way counts as inactive or inconclusive. Potency is the fitted concentration of half-maximal effect. Not all compounds are listed. The share of hits here may be higher or lower than overall.

item	Molecule	Cruzain noTriton	Cruzain Triton
1	C=Cc1ccccn1	-9.7%	1.2%
2	COC(=O)N1[C@H](C)C=C[C@]1(Cc1ccccc1)C(=O)NCc1ccc(C)o1	?	-6.0%
3	CC(=O)O[C@H]1C[C@@H](O[C@@H]2[C@H](C)O[C@H](O[C@@H]3[C@H](C)O[C@H](O[C@@H]4CC[C@@]5(C)[C@@H](CC[C@]6(C)[C@]5(C)C[C@H](O)[C@]5(C)[C@@H](C7=CC(=O)OC7)CC[C@@]56O)C4)C[C@@H]3O)C[C@@H]2O)O[C@@H](C)[C@H]1O[C@H]1O[C@@H](CO)[C@@H](O)[C@@H](O)[C@@H]1O	?	2.4%
4	COC(=O)[C@@]1(Cc2ccc(F)cc2)[C@H]2c3cc(C(=O)N(C)C)n(Cc4ccc(O)c(OC)c4)c3C[C@H]2CN1C(=O)c1ccccc1	?	-9.2%
5	CCCn1c(-c2ccc(F)cc2)nc2c(N3CCN(CCC(=O)OCC)CC3)nc(C)nc21	-1.1%	0.8%
6	CN1C[C@@H](CO)C=C2c3cccc4[nH]cc(c34)CC21 (stereo partly drawn)	39.8µM*	7.8%
7	N#CCBr	-9.4%	4.8%
8	c1ccc(OP(Oc2ccccc2)Oc2ccccc2)cc1	3.5%	-0.1%
9	COc1cccc([C@@H]2Oc3ccc(OC)cc3C[C@H]2OC(=O)NS(=O)(=O)c2ccc(C)cc2)c1	-3.2%	3.1%
10	C=CC(=O)OCC	-1.2%	1.5%
11	CCCCC[C@H](O)/C=C/C=C/C/C=C\CCCC(=O)O	-8.0%	2.2%
12	O=c1[nH]c(=O)n([C@@H]2C[C@H](O)[C@H](CO)O2)cc1I	-2.6%	2.4%
13	CCCCCCCC1=CC2=C(Cl)C(=O)C(C)(OC(C)=O)C(=O)C2=CN1C (stereo not drawn)	2.7%	1.3%
14	Clc1cccc2ccccc12	-4.4%	2.9%
15	CC[C@H](C(=O)[C@H](C)[C@H](O)[C@H](C)CCc1ccc(C)c(O)c1C(=O)O)[C@H]1O[C@](CC)([C@@H]2CC[C@@](O)(CC)[C@H](C)O2)C[C@H]1C	?	-12.2%
16	CCCn1c(-c2ccc(F)cc2)nc2c(N3CCCN(Cc4ccccc4)CC3)nc(C)nc21	6.1%	2.2%
17	COc1ccc2cc1Oc1ccc(cc1)CC1c3c(cc4c(c3Oc3cc5c(cc3OC)CCN(C)C5C2)OCO4)CCN1C (stereo not drawn)	-11.1%	-11.0%
18	Cc1c(-c2ccccc2)oc2cc(O)ccc2c1=O	10.0%	4.2%
19	Brc1ccc(C2=N[C@@H](Cc3ccccc3)CO2)cc1	6.1%	0.1%
20	CCBr	0.6%	3.2%
21	N=C1N=C(N)c2cc3ccccc3cc21	-13.7%	-9.5%
22	O=C(Nc1ccc(Cl)cc1)OCCN1CCN(Cc2ccccc2)CCC1=O	6.9%	0.0%
23	CCCCC/C=C\C/C=C\C/C=C\C/C=C\CCCC(=O)NCc1ccc(O)c(OC)c1	17.1%	0.0%
24	O=C(O)c1cc(Cl)ccc1Cl	-6.0%	3.4%
25	CC1OC(OC2CCC3(C)C(CCC4C3CC(O)C3(C)C(C5=CC(=O)OC5)CCC43O)C2)CC(O)C1OC1CC(O)C(OC2CC(O)C(OC3OC(CO)C(O)C(O)C3O)C(C)O2)C(C)O1 (stereo not drawn)	?	2.7%
26	CCC(=O)OC1(C)C(=O)C=C2C=C(/C=C/COC)OC=C2C1=O (stereo not drawn)	7.8%	1.1%
27	COc1ccc2c(c1)O[C@@H](c1ccc3c(c1)OCO3)[C@H](OC(=O)NS(=O)(=O)c1ccc(C)cc1)C2=O	1.1%	3.6%
28	Clc1ccc([C@@H](OCCN2CCCCC2)c2ccccc2)cc1	-3.6%	0.9%
29	CCCn1c(C)nc2c(N3CCOCC3)nc(C)nc21	-0.9%	-5.5%
30	CCCCC/C=C\C[C@@H](O)/C=C/C=C\C/C=C\CCCC(=O)O	-3.8%	-0.1%
31	O=P(O)(O)OC1[C@H](O)[C@H](OP(=O)(O)O)C(OP(=O)(O)O)[C@H](OP(=O)(O)O)[C@H]1O (stereo partly drawn)	2.8%	4.2%
32	Cc1nc(NC2CCCCC2)c2nc(-c3ccccc3)n(CCCN(C)C)c2n1	-7.6%	-10.0%
33	CC(C)CCC[C@@H](C)[C@H]1CC[C@H]2[C@@H]3CC=C4C[C@@H](O)CC[C@]4(C)[C@H]3CC[C@]12C	2.8%	0.8%
34	CCC1(C)CC(=O)NC(=O)C1	-6.2%	-1.8%
35	O=C(O)CNC(=O)c1ccc([N+](=O)[O-])cc1	?	-4.7%
36	O=NO	3.4%&1.6%	1.6%&5.0%
37	CCC(Cl)[N+](=O)[O-] (stereo not drawn)	0.9%	9.2%
38	OB(O)c1ccc(B(O)O)cc1	-6.2%	1.6%
39	COC(=O)[C@@]1(Cc2ccc(OC)cc2)[C@H]2c3cc(C(=O)N(C)C)n(Cc4cccc5ccccc45)c3C[C@H]2CN1C(=O)c1ccccc1	?	-10.2%
40	CC(=O)N1CC[C@@H]2CC(=O)CC[C@@H]21	-4.6%	5.8%
41	Cc1c2c(nc3ccccc13)-c1cccc(=O)n1C2	3.4%	-7.3%
42	NC1=NC(S)C2N=CN=C2N1 (stereo not drawn)	-7.1%	-3.3%
43	CN(C)c1ccc(N)cc1	-2.3%	0.3%
44	CC(C)c1ccc2c([Si](C)(C)C)c3c(nc2c1)-c1cccc(=O)n1C3	0.0%	-3.3%
45	CC(C)C[C@@H](CC(=O)N[C@@H](CCC(=O)O)CC(=O)O)NC(=O)[C@@H]1CNCC[C@H]1NC(=O)C[C@@H](NC(=O)C[C@H](Cc1c[nH]c2ccccc12)NC(=O)[C@@H]1CNCC[C@H]1N)C(C)C	1.3%	1.3%
46	CC1CC[C@@]2(OC1)O[C@@H]1[C@@H](O)[C@H]3C4CC[C@H]5C[C@@H](O[C@@H]6O[C@H](CO)[C@H](O[C@@H]7O[C@H](CO)[C@@H](O)[C@H](O[C@@H]8OC[C@@H](O)[C@H](O)[C@H]8O)[C@H]7O[C@@H]7O[C@H](CO)[C@@H](O)[C@H](O[C@@H]8O[C@H](CO)[C@@H](O)[C@H](O)[C@H]8O)[C@H]7O)[C@H](O)[C@H]6O)[C@H](O)C[C@]5(C)C4CC[C@]3(C)[C@H]1[C@@H]2C (stereo partly drawn)	24.6%	-1.7%
47	CCC1=C2CC[C@H]3C(=O)NC(=O)[C@H]3[C@H]2[C@@]2(C)C(=NCCc3c[nH]c4ccccc34)OC(=O)N2C1=O	-3.5%	-8.3%
48	NCCC[C@@H](CC(=O)N[C@@H]1CCNC[C@H]1C(=O)N[C@H](CC(=O)N[C@@H](CCC(=O)O)CC(=O)O)Cc1c[nH]c2ccccc12)NC(=O)C[C@H](Cc1ccccc1)NC(=O)[C@@H]1CNCC[C@H]1N	-5.4%	-2.1%
49	O=C(O)c1ccc(-c2ccc(-c3ccccc3)cc2)o1	2.0%	0.8%
50	CCCCCCCCN[C@@H](C)[C@H](O)c1ccc(SC(C)C)cc1	3.5%	-3.5%
51	Cc1ccccc1C1CC(=O)Oc2cc(C)c(Cl)c(C)c21 (stereo not drawn)	6.8%	-2.1%
52	COC(=O)C1(C)C=CC2(CCCCC2)N1C(C)=O (stereo not drawn)	-0.9%	1.4%
53	COc1ccc(C2CC(=O)Oc3ccc(O)cc32)cc1 (stereo not drawn)	-6.2%	-0.1%
54	CNC(C)Cc1ccccc1OC (stereo not drawn)	0.4%	6.7%
55	COC(=O)CCCC[C@@H]1SC[C@@H]2NC(=O)N[C@@H]21	4.0%	6.9%
56	CCN(CC)CCCC(C)n1c(-c2ccccc2)nc2c(NCc3ccccc3)nc(C)nc21 (stereo not drawn)	2.7%	-0.6%

Full records as entered above. Screens in order: Cruzain noTriton | Cruzain Triton
Profile of `CCCCCCCCN[C@@H](C)[C@H](O)c1ccc(SC(C)C)cc1` = 3.5% | -3.5%
Profile of `COC(=O)CCCC[C@@H]1SC[C@@H]2NC(=O)N[C@@H]21` = 4.0% | 6.9%
Profile of `COc1ccc(C2CC(=O)Oc3ccc(O)cc32)cc1` (stereo not drawn) = -6.2% | -0.1%
Profile of `COC(=O)C1(C)C=CC2(CCCCC2)N1C(C)=O` (stereo not drawn) = -0.9% | 1.4%

In the list so far, these have a COOH group:
item	Molecule	Cruzain noTriton	Cruzain Triton
11	CCCCC[C@H](O)/C=C/C=C/C/C=C\CCCC(=O)O	-8.0%	2.2%
15	CC[C@H](C(=O)[C@H](C)[C@H](O)[C@H](C)CCc1ccc(C)c(O)c1C(=O)O)[C@H]1O[C@](CC)([C@@H]2CC[C@@](O)(CC)[C@H](C)O2)C[C@H]1C	?	-12.2%
24	O=C(O)c1cc(Cl)ccc1Cl	-6.0%	3.4%
30	CCCCC/C=C\C[C@@H](O)/C=C/C=C\C/C=C\CCCC(=O)O	-3.8%	-0.1%
35	O=C(O)CNC(=O)c1ccc([N+](=O)[O-])cc1	?	-4.7%
45	CC(C)C[C@@H](CC(=O)N[C@@H](CCC(=O)O)CC(=O)O)NC(=O)[C@@H]1CNCC[C@H]1NC(=O)C[C@@H](NC(=O)C[C@H](Cc1c[nH]c2ccccc12)NC(=O)[C@@H]1CNCC[C@H]1N)C(C)C	1.3%	1.3%
48	NCCC[C@@H](CC(=O)N[C@@H]1CCNC[C@H]1C(=O)N[C@H](CC(=O)N[C@@H](CCC(=O)O)CC(=O)O)Cc1c[nH]c2ccccc12)NC(=O)C[C@H](Cc1ccccc1)NC(=O)[C@@H]1CNCC[C@H]1N	-5.4%	-2.1%
49	O=C(O)c1ccc(-c2ccc(-c3ccccc3)cc2)o1	2.0%	0.8%

Next section.
item	Molecule	Cruzain noTriton	Cruzain Triton
57	Nc1ccccc1	-4.0%	0.6%
58	NC(CCC(=O)N[C@@H](CS)C(=O)NCC(=O)O)C(=O)O (stereo partly drawn)	7.1%	-3.4%
59	CCCOc1ccc(Br)cc1-c1cc(-c2ccc(Cl)cc2)[nH]c1-c1ccncc1	?	0.4%
60	ClCc1ccccc1	9.1%	7.0%
61	COP(=O)(OC)O/C(=C\Cl)c1cc(Cl)c(Cl)cc1Cl	5.9%	0.1%
62	CC1CCCO1 (stereo not drawn)	-10.3%	-1.3%
63	C=C1CC[C@H](O)C/C1=C/C=C1\CCC[C@]2(C)[C@H]1CC[C@H]2[C@@H](C)/C=C\[C@@H](C)C(C)C	10.8%	3.2%
64	CCC[C@@H]1C[C@@]1(CCC)C(NC(=O)OCc1ccccc1)c1ccc(-c2ccccc2)cc1 (stereo partly drawn)	7.8%	1.3%
65	COC(=O)[C@@]1(Cc2ccc(OC)cc2)[C@H]2c3cc(C(=O)N(C)C)n(Cc4ccc(C)c(F)c4F)c3C[C@H]2CN1C(=O)c1ccccc1	?	-3.6%
66	Cc1ccc(C(=O)[C@@H]2[C@H]3C4COC(O4)C(=O)[C@@H]3[C@H]3C=Cc4ccccc4N32)cc1 (stereo partly drawn)	?	-18.1%
67	NCCCNCCCCNCCCNC(=O)CCc1ccc(O)cc1	0.3%	1.3%
68	C[C@]1(C(=O)NCC2CC2)C=C[C@@H](Cc2ccccc2)N1C(=O)c1ccccc1	-1.1%	1.9%
69	CCCCC/C=C\C/C=C\C/C=C\C=C\C(=O)CCCC(=O)O	-2.6%	7.0%
70	Cc1ccccc1-c1ccc(C(=O)O)s1	-2.6%	-1.0%
71	CC1(C)C(C(=O)O)N2C(=O)CC2S1(=O)=O (stereo not drawn)	2.9%	1.3%
72	Clc1ccc([C@H](Cn2ccnc2)OCc2csc3c(Cl)cccc23)c(Cl)c1	-0.1%	-4.4%

Quoted from the listing:
Cruzain noTriton result of cpd 72 = -0.1%
Cruzain noTriton result of cpd 69 = -2.6%

(cont.)
item	Molecule	Cruzain noTriton	Cruzain Triton
73	COC(=O)[C@H]1C[C@@H]1[C@H](NC(C)=O)c1ccccc1	-1.0%	0.9%
74	O=c1c(O)c(-c2ccc(O)cc2)oc2cc(O)ccc12	?	-3.4%
75	O=C(N[C@@H](Cc1ccccc1)C(=O)O)c1ccccc1	-6.5%	9.4%
76	O=NN(c1ccccc1)c1ccccc1	-4.7%	-2.2%
77	COC(=O)[C@@]1(Cc2ccc(OC)cc2)[C@H]2c3cc(C(=O)N4CCCC4)n(CCc4ccc(O)c(OC)c4)c3C[C@H]2CN1C(=O)c1ccccc1	?	-4.3%
78	CCCC[C@@H]1C[C@H]1C(NC(=O)Cc1ccccc1)c1ccc(-c2ccccc2)cc1 (stereo partly drawn)	-6.5%	-1.3%
79	c1ccc(Oc2ccccc2)cc1	1.0%	2.9%
80	CC(C)(C)OC(=O)NCCCC1=CC2=CC(=O)C(C)(OC(=O)c3ccc(Cl)nc3)C(=O)C2=CO1 (stereo not drawn)	-1.7%	-0.3%
81	CCc1c(C)[nH]c2c1C(=O)[C@H](CN1CCOCC1)CC2	-2.4%	1.2%
82	O=[N+]([O-])c1ccccc1O	-5.6%	5.4%
83	CCCCC[C@H](O)/C=C/C=C/C=C/[C@H](O)C/C=C\CCCC(=O)O	-5.5%	1.1%
